VDR inhibitor: blocks the human vitamin D receptor; Potency, µM, for the others: max response, negative = inhibition, usual class: inhibitors; 400,000 compounds, 0.93% hits; P11473; VDR-SRC2-3 peptide fluorescence polarization, 2 h; active = well fitted inhibition curve with a large enough effect; inconclusive = small, poorly fitted or top-dose-only effect, or another doubt; inactive = no such curve, though single readings can be large or run the other way; also: series mostly up to about 120 µM
Target sequence (P11473 whole entry, looked up): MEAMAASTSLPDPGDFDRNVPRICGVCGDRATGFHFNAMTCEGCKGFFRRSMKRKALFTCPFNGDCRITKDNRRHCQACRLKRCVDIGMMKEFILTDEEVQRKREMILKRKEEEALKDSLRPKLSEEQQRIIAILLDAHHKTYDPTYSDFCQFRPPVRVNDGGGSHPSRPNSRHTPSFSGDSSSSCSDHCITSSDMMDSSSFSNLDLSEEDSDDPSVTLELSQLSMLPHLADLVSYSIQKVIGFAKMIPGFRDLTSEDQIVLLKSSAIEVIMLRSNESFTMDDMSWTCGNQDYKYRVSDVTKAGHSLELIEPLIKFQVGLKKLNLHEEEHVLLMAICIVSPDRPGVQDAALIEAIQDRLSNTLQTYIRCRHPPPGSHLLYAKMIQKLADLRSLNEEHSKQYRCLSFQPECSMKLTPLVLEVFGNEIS
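Reagent solutions, kept cold and dark, are dispensed first; compounds are then pinned in at 23 nl, plates briefly spun, and incubated 2 h at ambient temperature. Inhibition of VDR–SRC2-3 peptide binding is read by fluorescence polarization.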
The depositor's hits bear a star; ? = inconclusive. % is scaled to controls: 0 for no effect and ±100 for the full control effect; potency is read from the fitted curve at half-maximal effect. This is a subset, so the mix of outcomes need not match the whole.

VDR inhibitor | Compound
2% | Cc1cc(OC(C)C(=O)N2CCN(c3ccccc3)CC2)c2c(C)c(C)c(=O)oc2c1 (centres undefined)
-10% | CCOC(=O)C1=C(CSc2nc3ccccc3s2)NC(=O)NC1c1ccc(OC)cc1 (centres undefined)
8% | O=C(COC(=O)CNC(=O)c1ccccc1)NC1CCCCC1
-11% | Nc1ccc(NC(=O)Nc2ccc(N)cc2)cc1
-10% | Fc1ccccc1NC(=S)N1CCN(c2ccccn2)CC1
2% | CCn1cc(C(=O)NCCC(=O)NC(C)C)c(=O)c2cc3c(cc21)OCO3
-1% | Cc1ccc(SCCN2CCN(Cc3ccccc3)CC2)cc1
-21% | Cc1ccc(C)c(S(=O)(=O)N2CCN(CC(=O)Nc3ccc4c(c3)CCC4)CC2)c1
-1% | O=C(OC1CCN(c2ncc(C(F)(F)F)cc2Cl)CC1)c1cccc(C(F)(F)F)c1
-8% | O=C(C1CC1)N(CCN(Cc1ccccc1)C(=O)C1CC1)Cc1ccccc1
7% | COc1ccc(S(N)(=O)=O)cc1C(=O)NCC(C)(C)N1CCCCC1
-30% | CC(=O)c1ccc(N2CCN(CC3CCCCC3)CC2)cc1
0% | COc1ccc2[nH]c3c(c2c1)CCN1C(=O)N([C@@H](C)C(=O)NCc2ccccc2)C(=O)[C@]31C
-4% | Fc1ccc(F)c(CN2CCN(c3ncccn3)CC2)c1
7% | C[C@H](CO)N1C[C@H](C)[C@@H](CN(C)S(C)(=O)=O)Oc2ccc(NC(=O)C3CCCCC3)cc2C1=O
4% | Cc1ccccc1Nc1nc(CSc2nnnn2-c2ccccc2)cs1
-21% | CCn1c(C)c(C2=CCN(S(=O)(=O)c3ccc(C)cc3)CC2)c2ccccc21
-5% | CCO[C@@H]1OC(C(=O)N2CCOCC2)=C[C@H](C2CCCCC2)[C@H]1CCCO
-7% | N=C(c1cccc([N+](=O)[O-])c1)N1CCCCC1
-3% | COc1ccc(NC(=O)CN(C)CC(=O)Nc2sc3c(c2C(N)=O)CCC3)cc1
-1% | Nc1nc(N)c(-c2cccc(C(F)(F)F)c2)c(Cc2cccc(C(F)(F)F)c2)n1
2% | COC(=O)C1C(O)=C(C=Nc2cccc3ccccc23)C(=O)CC1(C)C (centres undefined)
-8% | Cc1nn(-c2ccccc2)c(=S)n1-c1ccccc1
12% | Cc1cc(C(=O)COc2cccc([N+](=O)[O-])c2)c(C)n1C1CC1
-2% | Cc1nn(Cc2ccccc2)c(C)c1NC(=O)c1cccs1
-19% | COc1ccc(C(=O)NCC(c2ccco2)N2CCOCC2)cc1OC (centres undefined)
-6% | COc1cccc(N2CCN(C(=O)C3CCCN(c4ncnc5c4nc4n5CCCCC4)C3)CC2)c1 (centres undefined)
-9% | Cc1cc(NCc2ccccc2)nc(N2CCOCC2)n1
? | O=C(COC(=O)CNC(=O)C1CCCCC1)Nc1cc(C(F)(F)F)ccc1Cl
14% | COc1cccc(CNc2cc(CSc3ccc(Cl)cc3)nc(C)n2)c1
-4% | CCC(=O)Nc1ccc(C(=O)CSc2nnc(-c3ccc(NS(C)(=O)=O)cc3)n2C)cc1OC
-9% | O=C(CCl)N=c1sccn1Cc1ccc(Cl)cc1Cl
12% | COc1ccc2[nH]cc(S(=O)(=O)c3ccc(C(C)C)cc3)c(=O)c2c1
17% | CS(=O)(=O)Nc1ccc(C(=O)NCCSCc2c(F)cccc2Cl)cc1
-1% | COCCNC(=O)CSCc1c(F)cccc1Cl
-6% | COCCn1c(=NC(=O)CCS(=O)(=O)c2ccccc2)sc2c(OC)ccc(OC)c21
7% | FC(F)(F)C12CC(c3ccccc3)=NCCN1CCN2 (centres undefined)
0% | Cc1ccc(Cc2cnc(NC(=O)c3ccco3)s2)cc1
-14% | C=CC[C@H](CC(=O)N(CCO)Cc1ccccc1)C(=O)N[C@H](COC(=O)[C@@H](CC=C)Cc1ccc(F)cc1)Cc1ccccc1
-3% | Cc1cnc(C)c(N2CCC(C(=O)NC(C)c3cccs3)CC2)n1 (centres undefined)
-7% | CN(CC(=O)Nc1ccc(F)cc1)C(=O)Cn1cnc2ccc(Cl)cc2c1=O
4% | COc1ccc(/C=C2\C(=O)NC(=S)N2C(=O)c2ccc(C)cc2)cc1
-15% | Cc1cc(C)c(NC(=O)C2CC3CCC2C3)c(C)c1 (centres undefined)
-16% | O=C(/C=C/c1ccc(F)cc1)OCC(=O)c1ccc[nH]1
-1% | CCCCn1c(N)c(N(CCOC)C(=O)CSc2nc3ccc(C)cc3[nH]2)c(=O)[nH]c1=O
-1% | O=C(NNS(=O)(=O)c1ccccc1)c1ccc([N+](=O)[O-])cc1
? | COc1cccc(OCCNCc2ccccc2)c1
-8% | O=C(ON=C1CCN(S(=O)(=O)c2ccccc2)CC1)c1ccccc1
2% | CC(CC(=O)O)CC1=NS(=O)(=O)c2ccccc2N1 (centres undefined)
-9% | Cc1nn(Cc2ccc(C(=O)N3CCN(C(=O)c4ccco4)CC3)o2)c(C)c1[N+](=O)[O-]

Sorted by the number under VDR inhibitor (high to low): three of the compounds above.
VDR inhibitor | Compound
7% | FC(F)(F)C12CC(c3ccccc3)=NCCN1CCN2 (centres undefined)
-4% | CCC(=O)Nc1ccc(C(=O)CSc2nnc(-c3ccc(NS(C)(=O)=O)cc3)n2C)cc1OC
-8% | O=C(ON=C1CCN(S(=O)(=O)c2ccccc2)CC1)c1ccccc1

New compounds follow:
VDR inhibitor | Compound
7% | COc1ccc(C(=O)NCCc2nnc(SCC(=O)Nc3ccccc3)n2C)cc1
4% | COc1cccc(Cn2c(=O)c(C)nc3cnc(Nc4cccc(OC)c4)nc32)c1
-20% | COc1cc(C=NO)nc(-c2ccccn2)c1
-23% | Cc1ccc(C(=O)Nc2ccc3ccccc3n2)cc1
-1% | O=C(NCc1ccccc1Cl)c1ccc(NC2=NC3CS(=O)(=O)CC3S2)cc1 (centres undefined)
-2% | Cn1c(N)c(C(=O)COC(=O)Cc2ccccc2F)c(=O)n(C)c1=O
4% | COc1ccccc1NC(=O)CCCC(=O)OCC(F)(F)C(F)F
-5% | O=C(N/N=C/C=C/c1ccccc1)NC1CCCCC1
4% | Cc1cccc(Cn2c(SCc3ccc(C(=O)N4CCCCCC4)cc3)nc3ccncc32)c1
3% | COc1ccc(C=C2SC(=O)NC2=O)cc1OC
2% | COc1cc2c(cc1NC(=O)COc1ccccc1OC)oc1ccccc12
-1% | CCOC(=O)CSc1nc(-c2ccccc2)nc2c1oc1ccccc12
-9% | COc1cccc(/C=N/NC(=O)C(=O)N/N=C/c2cccc(OC)c2OC)c1OC
8% | CN(CC1CCOCC1)C(=O)CC1C(=O)NCCN1Cc1cccc(C(F)(F)F)c1 (centres undefined)
-12% | Cc1ccc(C(=O)NC2=NCCS2)cc1Cl
-10% | Fc1ccc2nc(Nc3ccccc3)sc2c1
-7% | COc1ccccc1C(=O)Nc1ccc(N2CCCCC2)cc1
-10% | COc1ccccc1OS(=O)(=O)c1ccc(NC(C)=O)cc1
-20% | CCOC(=O)N1CCN([N+]([O-])=NOc2cc(O/N=[N+](\[O-])N(C)C)c([N+](=O)[O-])cc2[N+](=O)[O-])CC1
2% | CCC(C)NCCCCOc1ccc(Cl)cc1C (centres undefined)
-13% | CCCN(CC(=O)Nc1cc(Cl)ccc1Cl)C(=O)/C=C/c1cc(OC)ccc1OC
28µM* | NC(=S)N/N=C/c1cn(-c2ccccc2)nc1-c1cccnc1
21% | COc1cc(C(=O)NCC2CCCO2)ccc1OCc1ccc(Cl)cc1Cl (centres undefined)
2% | Cc1cc(/C([O-])=C(/C(=S)Nc2ccc(F)cc2)[n+]2ccccc2)c(C)n1Cc1ccccc1Cl
-7% | CC(NS(=O)(=O)c1ccccc1)C(=O)NCCc1ccccn1 (centres undefined)

Sorted by length of the SMILES (largest number first): three of the compounds above.
VDR inhibitor | Compound
-6% | COCCn1c(=NC(=O)CCS(=O)(=O)c2ccccc2)sc2c(OC)ccc(OC)c21
-8% | O=C(C1CC1)N(CCN(Cc1ccccc1)C(=O)C1CC1)Cc1ccccc1
-7% | COc1ccccc1C(=O)Nc1ccc(N2CCCCC2)cc1

Returning to the listing, repeating the 7 entries before the break.
VDR inhibitor | Compound
-20% | CCOC(=O)N1CCN([N+]([O-])=NOc2cc(O/N=[N+](\[O-])N(C)C)c([N+](=O)[O-])cc2[N+](=O)[O-])CC1
2% | CCC(C)NCCCCOc1ccc(Cl)cc1C (centres undefined)
-13% | CCCN(CC(=O)Nc1cc(Cl)ccc1Cl)C(=O)/C=C/c1cc(OC)ccc1OC
28µM* | NC(=S)N/N=C/c1cn(-c2ccccc2)nc1-c1cccnc1
21% | COc1cc(C(=O)NCC2CCCO2)ccc1OCc1ccc(Cl)cc1Cl (centres undefined)
2% | Cc1cc(/C([O-])=C(/C(=S)Nc2ccc(F)cc2)[n+]2ccccc2)c(C)n1Cc1ccccc1Cl
-7% | CC(NS(=O)(=O)c1ccccc1)C(=O)NCCc1ccccn1 (centres undefined)
-3% | COc1cccc(N2C(=O)C3CCCN3C2=S)c1 (centres undefined)
-14% | CN(C(=O)CCc1nc(-c2ccccc2F)no1)c1ccccc1
-25% | CCCn1c(SCC(=O)c2ccc3c(c2)OCCO3)nnc1C(C)C
-13% | CCOC(=O)CC(NC(=O)c1ccco1)c1ccccc1Cl (centres undefined)
-2% | CCCCNC(=S)N1CCC(Cc2ccccc2)CC1
-8% | CC(Nc1nc(-c2ccc(Cl)cc2)cs1)c1nc2cc(Cl)c(N3CCCCC3)cc2n1CCOCCO (centres undefined)
0% | Cc1ccc(C2CC2C(=O)NNC(=S)Nc2ccc(Cl)cc2)cc1 (centres undefined)
-1% | O=C(NNC(=O)c1ccccc1O)c1ccc(-c2ccc([N+](=O)[O-])cc2)o1
? | Cc1ccc(NC(=O)/C(=C\c2ccco2)NC(=O)c2ccco2)cc1
-5% | O=C(CC1Oc2ccccc2NC1=O)NCCCN1CCN(C2CCCCC2)CC1 (centres undefined)
12% | NC12CC3CC(C1)CC(CC(=O)O)(C3)C2
-26% | O=C(O)COc1ccc(NC(=O)c2cccs2)cc1
-12% | O=[n+]1cc(-c2cc3ccccc3o2)n([O-])c2c1CCCC2
1% | Cc1cccc(C)c1NC(=O)CSc1ccc([N+](=O)[O-])cn1
5% | NC(=O)C1CCN(C(=O)CNC(=O)c2ccc(F)cc2)CC1
-6% | COc1cc(C2=NOC(C(=O)NCc3cccnc3)C2)cc(OC)c1OC (centres undefined)
-1% | COc1ccccc1NC(=O)CCC(=O)N(Cc1ccc(OC)c(OC)c1)c1nccs1
-21% | CCOC(=O)C(CC)Sc1nc2c(c(=O)[nH]c(=O)n2C)n1CCc1ccccc1 (centres undefined)
-7% | O=C(CCC(=O)NC1CCCCC1)N/N=C/c1ccncc1
? | COc1ccc(N(CC(=O)NC2CCS(=O)(=O)C2)S(=O)(=O)c2cc(C)ccc2C)cc1 (centres undefined)
-6% | Cc1cc(C)n(-c2nc3ccccc3c(=O)n2OCC#N)n1
-3% | CCN(CC)c1ccc(/C=N/N2CCN(c3ccccc3OC)CC2)cc1
5% | COc1ccc(CNC(=O)c2cc3cccc(OC)c3oc2=O)cc1
-14% | C=CCNC(=O)/C(C#N)=C/c1cc(Br)ccc1OC
-4% | COc1ccc2c(c1)C=C([C@@H]1C[C@H]3CN(c4ccccc4)C(=O)[C@]34CCCN14)CO2
? | COC(=O)C(O)C1C(C)(C)C(OC(C)=O)C2CC3=C4CC(=O)OC(c5ccoc5)[C@]4(C)CCC3[C@@]1(C)C2=O (some centres undefined)
-17% | CCNc1nc(ON=C(C)C)nc(N(C)C)n1
6% | CC1CCN(S(=O)(=O)c2ccc([N+](=O)[O-])cc2)CC1
-4% | CCOc1ccc(S(=O)(=O)N2CCC(C(=O)NCC3CCCO3)CC2)cc1 (centres undefined)
28% | COc1ccc(-c2nc3ccccc3c(=O)n2O)cc1
6% | O=C(NNC(=O)c1ccc(Cl)nc1)c1ccncc1
-1% | N#C/C(=C/c1ccc2c(c1)OCO2)C(=O)Nc1ccc(O)cc1
5% | CCOc1cc(C#N)c(NC(=O)c2ccnn2C)cc1OCC
? | Cc1c(Cl)cccc1NC(=O)CNc1cccc(C(F)(F)F)c1
0% | Cn1nnnc1SCC(=O)Nc1ccccc1-c1ccccc1
13% | CCOc1ccc(NC(=O)CN2CCN(C3CCCCC3)C(=O)C2=O)cc1
-5% | C/C=C/c1ccc(OCCn2nnc3ccccc32)c(OC)c1
21% | O=C(O)c1ccc2nc(C(F)(F)F)[nH]c2c1
11% | Cc1nn(-c2ccccc2)c(C)c1-c1nnc(-c2c(C)nn(-c3ccccc3)c2C)o1
12% | Cc1ccc2nc(Cl)c(CN(Cc3cccs3)C(=O)C3CC3)cc2c1
9% | CCc1cccc(C)c1NC(=O)COC(=O)C1CC(=O)N(CCc2ccc(OC)c(OC)c2)C1 (centres undefined)
-3% | CCOC(=O)C1CCCN(C(=O)c2cnn3c(C(F)F)cc(-c4ccc(C)cc4)nc23)C1 (centres undefined)
-3% | CC1=C(C(=O)Nc2ccccn2)C(c2ccc(Br)cc2)n2ncnc2N1 (centres undefined)
15% | CCCCn1c(N)c(N(CCOC)C(=O)CN2C(=O)NC3(CC(C)CC(C)(C)C3)C2=O)c(=O)[nH]c1=O (centres undefined)
14% | CCNc1cc(Nc2c(C)n(C)n(-c3ccccc3)c2=O)c([N+](=O)[O-])c2nonc12
-16% | CCN1C(=O)CC(NC2CCN(C(=O)c3ccc(F)cc3)CC2)C1=O (centres undefined)
? | O=c1cc(-c2ccc(O)c(O)c2)oc2ccccc12
0% | CSc1ncccc1C(=O)OCC(=O)Nc1ccc(C)c(S(=O)(=O)N2CCOCC2)c1
-4% | Cc1c(C(N)=O)c(-c2ccccc2)nn1-c1ccccc1
